Bioassay records: PubChem BioAssay, several laboratories
LANA-H2B inh: blockers of LANA interaction with H2A/H2B – biochemical, FP readout, HTS, primary screen | cell-free LANA-H2A/H2B peptide, fluorescence polarization | inhibition, % (concentration not given with the values) | AID 2629, 2010 | Protein LANA1 (Human herpesvirus 8 type P (isolate GK18)), Q9QR71 | 320,000 compounds, 0.6% hits; in the data active means inhibition mostly above about 10%, no sharp cut-off; inactive means mostly below about 6.7%;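 further: stock transfer was 7.5 nL into about 10 µL; 0% = median of vehicle wells and 100% = median of positive control wells; one replicate is shown; the record names a cut of 25% in any replicate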
Calb FLC: C. albicans growth inhibition with fluconazole, primary screen, CaCi-2 strain, Alamar Blue fluorescence; C. albicans CaCi-2 (fluconazole-resistant clinical isolate) + fluconazole, 48 h; growth inhibition, % (concentration not given with the values); 300,000 compounds, 0.57% hits;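 active means most replicates above 75%; inconclusive means exactly half above 75%; inactive means most below 75%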;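 further: all wells also contain fluconazole at 8 µg/ml as a sub-toxic cotreatment; 0% = median of DMSO wells and 100% = median of geldanamycin control wells; wells of about 8 µL received 7.5 nL stock; the first replicate is given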
Beta2AR agonist: beta2AR agonists driving receptor internalization, primary screen, cell-based, FAP fluorogen, flow cytometry | Beta-2 adrenergic receptor (Homo sapiens), P07550 | Am2.2-beta2AR cells; reference of the scale not given here | response, % (test concentration not listed) | 340,000 compounds, 0.43% hits | AID 504454, 2011;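 active means response above a set limit, near 3 SD of response in nonfluorescent compounds, cut at about 42% in these data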;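 further: stock transfer was 100 nL into about 11 µL; a reference agonist was the positive control; negative values mostly stem from fluorescent compounds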
Target sequence (P07550 whole entry, looked up): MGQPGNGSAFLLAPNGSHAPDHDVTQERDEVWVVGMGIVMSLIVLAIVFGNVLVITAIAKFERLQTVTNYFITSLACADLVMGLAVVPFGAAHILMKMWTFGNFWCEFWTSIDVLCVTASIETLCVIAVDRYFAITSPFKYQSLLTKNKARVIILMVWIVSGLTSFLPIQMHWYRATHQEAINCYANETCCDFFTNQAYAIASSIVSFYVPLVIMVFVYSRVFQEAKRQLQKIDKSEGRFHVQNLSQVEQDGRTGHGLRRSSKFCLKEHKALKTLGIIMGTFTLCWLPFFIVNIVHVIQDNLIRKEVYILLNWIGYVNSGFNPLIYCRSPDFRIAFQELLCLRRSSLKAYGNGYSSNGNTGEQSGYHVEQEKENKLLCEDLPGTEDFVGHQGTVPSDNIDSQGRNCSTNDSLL
Beta apoptosis: inhibitors of cytokine-induced beta cell apoptosis, primary screen, luminescence; 300,000 compounds, 0.8% hits; INS-1E cytokine-induced death, ATP luminescence, 48 h; percent of positive-control rescue, neutral wells zero; protection from apoptosis, % (concentration not given with the values);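 active means all replicates at 75% or more, or half of them and the mean; inconclusive means half reach 75% but not the mean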;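 further: 0% = cytokine-treated negative control wells and 100% = positive control rescue; higher means more ATP so stronger rescue from cytokine killing; wells of about 40 µL received 100 nL stock; the first replicate is given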
rRNA inh HTS: reduced GFP signal of wild-type E. coli, primary screen, bacterial rRNA inhibitor project, GFP/RFP fluorescence, OD600, single point; E. coli WT GFP vs humanized-ribosome RFP mutants, 24 h; hits give low values; DMSO median 0, no signal -100; GFP signal change (wild-type ribosome), % (concentration not given with the values); 350,000 compounds, 1.6% hits; AID 720706, 2013;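 active means significant combined selectivity score with lowered wild-type GFP, culture density cut under 30%, mutant RFP and density less affected; inactive means any of these conditions unmet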; further: one replicate is shown; some compounds called inactive have numbers as strong as hits
A1 inh: caspase 3/7 activation in MEF A1-2A-BIM cells, primary screen, A1 inhibitor project, cell-based, luminescence, HTS. 330,000 compounds, 0.066% hits. AID 2462, 2010. Caspase-Glo 3/7 luminescence, 3 h; percent of clofoctol response, vehicle zero. caspase activation, % (no concentration beside the values);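 active means over half of replicate activation scores above 10%, or exactly half above 10 with the replicate mean above 10; inconclusive means replicate mean below 10 yet half the replicates above 10; inactive means over half of replicates below 10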;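 further: wells of about 30 µL received 50 nL stock; many hits fall short of the cut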
T cruzi repl: inhibitors of intracellular T. cruzi growth, primary screen, luminescence, NIH3T3 host cells; T. cruzi beta-gal in NIH3T3, 90 h; inhibition, % (concentration not given with the values); AID 1885, 2009; 300,000 compounds, 1.4% hits;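 active means mean inhibition across valid replicates above about 55%, limit read from the data; inconclusive means mean below that limit but half or more replicates reach it; inactive means mean below it, under half of replicates reach it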;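 further: signal also drops with host cell toxicity which is not excluded here; 0% = plate median of DMSO wells and 100% = zero luminescence signal; higher percent means less beta-gal luminescence so fewer parasites; stock transfer was 50 nL into about 50 µL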
ALR inh: inhibitors of human ALR sulfhydryl oxidase, primary screen, biochemical, H2O2 detection, HRP-luminol luminescence, single point; purified ALR, DTT oxidation; AID 485317, 2010; inhibition, % (no concentration beside the values); FAD-linked sulfhydryl oxidase ALR (Homo sapiens), P55789; 290,000 compounds, 3.8% hits;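 active means mean and each replicate at 75% or more; inconclusive means only one of the two met; inactive means neither met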;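 further: stock transfer was 7.5 nL into about 7.5 µL; 0% = neutral wells and 100% = wells with inactivated enzyme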
Target sequence (P55789 whole entry, looked up): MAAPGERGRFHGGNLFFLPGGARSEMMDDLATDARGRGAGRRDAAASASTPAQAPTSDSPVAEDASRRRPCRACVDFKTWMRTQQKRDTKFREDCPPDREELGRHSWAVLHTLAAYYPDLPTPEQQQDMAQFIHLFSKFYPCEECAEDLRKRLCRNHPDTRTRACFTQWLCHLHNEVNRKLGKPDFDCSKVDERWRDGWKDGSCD
rRNA inh HTS OD600: further read-out of rRNA inh HTS, marked with its call; OD600 change, %; measured here: OD600 growth;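 optical density of the mix in the first replicate; 0 = DMSO median and -100 = no signal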
rRNA inh HTS RFP: also measured in rRNA inh HTS; calls as there; RFP signal change, %; measured here: RFP humanized mutant strains;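 first replicate; 0 = DMSO median and -100 = no signal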
The depositor's hits bear a star; i = inactive; ? = inconclusive; nt = not tested or not shown. A portion of the library. The share of hits here may be higher or lower than overall.

(1) CCOC(=O)CC1C(=O)NCCN1c1nc2ccc(C)cn2c(=O)c1/C=C1\SC(=S)N(CC(C)C)C1=O (stereo unspecified)
(2) O=[N+]([O-])c1cc(S(=O)(=O)N2CCCC2)ccc1N/N=C1/CCCc2ccccc21
(3) CC1=CC(=O)C(C(C)C)=C/C1=N\OC(=O)c1cccc2nc(C)oc12
(4) C=CCc1cccc2cc(C(=O)N3CCN(C(=O)c4ccccc4)CC3)c(=O)oc12
(5) COC(=O)C1Sc2[nH]c(=O)sc2C2c3ccccc3OC(=O)C12 (stereo unspecified)
(6) Cc1nccn1CC(O)COc1ccc(Cl)cc1Cl (stereo unspecified)
(7) Cn1nccc1C(=O)N1CCN(c2cccc(C(F)(F)F)c2)CC1
(8) CCCCOc1ccc(C(=O)Nc2cccc(-n3cnnn3)c2)cc1OC

Compound | 1 | 2 | 3 | 4 | 5 | 6 | 7 | 8
LANA-H2B inh | -31 | 2.9 | -5.3 | -6.9 | -0.7 | -3.2 | 5.0 | 1.1
Calb FLC | -13 | 0 | 37 | -3 | -9 | -1 | 0 | nt
Beta2AR agonist | i | -1 | -1 | 12 | 2 | -3 | 1 | -1
Beta apoptosis | 5 | 5 | -5 | -3 | -12 | -6 | 0 | -3
rRNA inh HTS | nt | 4 | 13 | -4 | nt | 3 | 8 | -1
rRNA inh HTS OD600 | nt | 17 | 9 | 0 | nt | 2 | 6 | 13
rRNA inh HTS RFP | nt | 3.3 | 0.7 | -1.8 | nt | -0.3 | -0.7 | 1.8
A1 inh | 0.9 | 1.9 | 0.6 | -0.2 | 0.1 | 0.4 | -0.4 | -0.4
T cruzi repl | nt | 11 | 4 | -8 | -4 | 9 | 8 | 11
ALR inh | -1 | -6 | 13 | nt | ? | 2 | -6 | -4

(9) COC(=O)c1[nH]c2cc(C)ccc2c1NC(=O)CN1CCN(C(=O)c2ccco2)CC1
(10) Cc1cc(NC(=O)CSc2nc(-c3ccco3)cc(C(F)(F)F)n2)no1
(11) Cc1c(Cc2ccccc2)c(=O)oc2cc(OCc3nn[nH]n3)ccc12
(12) CCOC(=O)c1ccc(NC(=O)Nc2cccc(C)n2)cc1
(13) COCCNC(=O)c1onc(CSc2cccc(Cl)c2)c1C(=O)O
(14) CC(=O)c1cccc(NC(=O)c2ccc3c(=O)n4c(nc3c2)CCCCC4)c1
(15) COC(=O)c1cc(C#N)c(=O)[nH]c1C
(16) Cc1c(-c2cccc(Cl)c2)nc2ccccc2c1C(=O)OCC(=O)N(C)C1CCS(=O)(=O)C1 (stereo unspecified)

Compound | 9 | 10 | 11 | 12 | 13 | 14 | 15 | 16
LANA-H2B inh | 0.3 | 0.2 | -4.4 | -4.7 | -0.5 | -432 | 4.0 | 0.1
Calb FLC | 2 | -12 | 32 | -7 | -5 | 11 | ? | 49
Beta2AR agonist | 1 | -4 | 5 | 7 | -15 | -2 | 2 | 2
Beta apoptosis | 12 | 18 | -5 | -1 | -8 | -4 | -1 | 11
rRNA inh HTS | nt | nt | nt | 14 | -6 | -7 | 8 | -2
rRNA inh HTS OD600 | nt | nt | nt | 13 | -4 | -5 | 8 | -11
rRNA inh HTS RFP | nt | nt | nt | -1.4 | -3.0 | 5.1 | 9.3 | -1.4
A1 inh | 0.4 | 0.0 | 0.9 | -0.8 | -0.3 | 0.4 | -0.5 | 0.0
T cruzi repl | -25 | -14 | -2 | -2 | -6 | 4 | -4 | -17
ALR inh | -1 | 0 | 98* | -5 | 18 | -1 | -12 | 2

(17) CCOC(=O)C(=O)C1=C(N2CCOCC2)/C(=C\c2ccc(F)cc2)CC1
(18) CCn1c(C)nc2cc(C(=O)NN=Cc3ccc([N+](=O)[O-])cc3)ccc21
(19) COC(=O)CC/C(=N/Nc1ccc(Cl)c(Cl)c1)C(=O)OC
(20) Oc1ccc(Br)cc1-c1ccn[nH]1
(21) CCc1nnc(NC(=O)CSc2nnc(CNc3ccc(F)cc3)n2C2CCCCC2)s1
(22) CN(C)c1ccc(N2CN=C3SCC(=O)N3C2)cc1
(23) Fc1cccc(Cl)c1CSc1ccc(-c2cccnc2)nn1
(24) CN(CCCNC(=O)c1ccc(CS(=O)c2ccc(Br)cc2)o1)Cc1ccccc1 (stereo unspecified)

Compound | 17 | 18 | 19 | 20 | 21 | 22 | 23 | 24
LANA-H2B inh | 0.0 | 3.7 | -3.9 | 1.4 | -3.8 | 2.2 | -1.7 | 1.8
Calb FLC | -28 | nt | 10 | -18 | 1 | 15 | -2 | -12
Beta2AR agonist | 4 | -2 | 4 | 12 | -6 | 2 | 4 | -6
Beta apoptosis | -4 | 3 | -7 | 2 | -4 | 54 | 4 | -4
rRNA inh HTS | -7 | -2 | -1 | -16 | 16 | nt | -17 | 3
rRNA inh HTS OD600 | -16 | 9 | 2 | -4 | 9 | nt | -19 | -5
rRNA inh HTS RFP | 4.8 | -1.4 | -1.0 | -4.0 | -6.2 | nt | 3.3 | 8.1
A1 inh | 0.7 | -0.1 | 1.7 | -1.0 | -0.1 | -0.6 | -0.4 | -0.2
T cruzi repl | -26 | nt | 4 | -8 | 13 | ? | 6 | 43
ALR inh | 22 | nt | nt | 15 | -4 | 99* | nt | -4

Grouped by structure, the compounds so far containing two or more sulfur atoms
(1) CCOC(=O)CC1C(=O)NCCN1c1nc2ccc(C)cn2c(=O)c1/C=C1\SC(=S)N(CC(C)C)C1=O (stereo unspecified)
(5) COC(=O)C1Sc2[nH]c(=O)sc2C2c3ccccc3OC(=O)C12 (stereo unspecified)
(21) CCc1nnc(NC(=O)CSc2nnc(CNc3ccc(F)cc3)n2C2CCCCC2)s1

Compound | 1 | 5 | 21
LANA-H2B inh | -31 | -0.7 | -3.8
Calb FLC | -13 | -9 | 1
Beta2AR agonist | i | 2 | -6
Beta apoptosis | 5 | -12 | -4
rRNA inh HTS | nt | nt | 16
rRNA inh HTS OD600 | nt | nt | 9
rRNA inh HTS RFP | nt | nt | -6.2
A1 inh | 0.9 | 0.1 | -0.1
T cruzi repl | nt | -4 | 13
ALR inh | -1 | ? | -4

Down the list, from the results shown:
rRNA inh HTS OD600 for entries 17–24 → -16, 9, 2, -4, 9, nt, -19, -5
LANA-H2B inh for entries 17–24 → 0.0, 3.7, -3.9, 1.4, -3.8, 2.2, -1.7, 1.8

Next part
(25) Cc1nc(N)c(CC(Br)CBr)c(Cl)n1 (stereo unspecified)
(26) COc1ccc(Cl)cc1S(=O)(=O)N1CCCC(C(=O)NCc2ccccc2)C1 (stereo unspecified)
(27) COc1cc(/C=N/NC(=O)CCN2CCCCC2)ccc1O
(28) COc1ccc(NC(=O)NNC(=O)c2ccc3ccccc3c2O)cc1OC
(29) O=S(=O)(Nc1ccccc1O)c1ccc(Cl)nc1
(30) COC(=O)N1CCN(c2ccc(Cl)c(Cl)c2)CC1
(31) CC(C)N1CCC(NC(=O)Nc2ccc3c(c2)OCO3)CC1
(32) CCOc1ccc(Cl)cc1/C=N/NC(N)=O

Compound | 25 | 26 | 27 | 28 | 29 | 30 | 31 | 32
LANA-H2B inh | 1.8 | 2.1 | 1.8 | 0.3 | -0.2 | -7.6 | -3.9 | -3.1
Calb FLC | -7 | nt | -6 | 0 | -1 | -1 | -9 | -11
Beta2AR agonist | 0 | -20 | 1 | -1 | -6 | 7 | -17 | 0
Beta apoptosis | -5 | 8 | 0 | -2 | -1 | 1 | -1 | -3
rRNA inh HTS | -38* | -15 | 14 | -14 | 9 | -41 | -8 | 2
rRNA inh HTS OD600 | -10* | -20 | 20 | -12 | 2 | -57 | -7 | 3
rRNA inh HTS RFP | -9.2* | -3.3 | 0.3 | -4.3 | -4.4 | -14 | -1.2 | -1.4
A1 inh | -1.8 | 0.3 | 1.6 | 0.0 | -0.7 | -0.4 | -0.3 | -0.2
T cruzi repl | 12 | 5 | 1 | 9 | -9 | -13 | 6 | -1
ALR inh | -4 | -4 | 99* | 55 | 99* | 5 | -2 | nt

A few values from the list:
ALR inh, no. 30 : 5
LANA-H2B inh, no. 31 : -3.9
Calb FLC, no. 27 : -6

The results go on:
(33) Cc1nc2ccccc2c2oc(C(=O)NCc3ccccn3)cc12
(34) O=C(/C=C/c1ccc2c(c1)OCO2)NCc1cn2cc(Cl)ccc2n1
(35) Cc1ccc(NC(=O)CCNS(=O)(=O)c2cccc3nsnc23)cc1F
(36) N#CCCN(Cc1cccs1)C(=O)Nc1ccc(F)cc1
(37) COc1ccc(S(=O)(=O)N2CCN(CC(=O)NCCc3cccs3)CC2)cc1
(38) C=C(C)CC1N(c2cccc(OC)c2)C(=O)[C@@H]2C(C(=O)O)[C@H]3C=C[C@@]12O3 (stereo partly specified)
(39) COc1ccc(NC(=S)N(CCCN2CCCC2)Cc2cccn2Cc2ccc(Cl)cc2)cc1Cl
(40) COc1ccc(NC(=O)COC(=O)C2CCC(C(C)(C)C)CC2)c([N+](=O)[O-])c1 (stereo unspecified)

Compound | 33 | 34 | 35 | 36 | 37 | 38 | 39 | 40
LANA-H2B inh | -6.6 | 9.5 | 2.7 | 0.5 | 3.5 | -0.6 | 2.9 | 2.8
Calb FLC | -21 | -3 | 13 | 14 | nt | -6 | -10 | 13
Beta2AR agonist | -10 | -9 | -2 | 6 | -5 | -1 | 25 | -4
Beta apoptosis | 26 | -6 | 4 | -5 | -1 | -3 | 57 | -3
rRNA inh HTS | -11 | -7 | -5 | 4 | -3 | nt | -45 | nt
rRNA inh HTS OD600 | -8 | -4 | -20 | 1 | 0 | nt | -46 | nt
rRNA inh HTS RFP | 7.6 | -0.7 | 26 | -1.8 | 1.5 | nt | -1.6 | nt
A1 inh | 1.3 | 1.4 | -0.1 | -0.6 | 0.5 | 0.2 | 0.0 | -0.3
T cruzi repl | -24 | 6 | 5 | nt | nt | -5 | 47 | -6
ALR inh | -4 | nt | -5 | 2 | 8 | nt | -4 | -7

Profiles, quoted from the list. Order of values: LANA-H2B inh	Calb FLC	Beta2AR agonist	Beta apoptosis	rRNA inh HTS	rRNA inh HTS OD600	rRNA inh HTS RFP	A1 inh	T cruzi repl	ALR inh
Profile of COc1ccc(NC(=O)COC(=O)C2CCC(C(C)(C)C)CC2)c([N+](=O)[O-])c1 (stereo unspecified) = 2.8	13	-4	-3	nt	nt	nt	-0.3	-6	-7
Profile of COc1ccc(NC(=S)N(CCCN2CCCC2)Cc2cccn2Cc2ccc(Cl)cc2)cc1Cl = 2.9	-10	25	57	-45	-46	-1.6	0.0	47	-4
